TRPML1 inh = human mucolipin-1 channel inhibition; activity change, negative = inhibition, % (test concentration not listed); AID 624415; 390,000 tested, 0.02% active; TRPML1-inducible cells, Ca2+ dye fluorescence, FDSS; stronger effect = lower value; inhibition of EC80 agonist-evoked calcium signal; in the data active means activity change below about -50%; inconclusive means about -30% to -50%; inactive means above about -30%;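 note: stimulus is agonist 54-4 at its EC80 concentration; % is set by controls: 0 for no effect and ±100 for the full control effect; compound concentration not given in the record; the text of the record puts the active cut at -80%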
Target sequence (Q9GZU1 whole entry, looked up): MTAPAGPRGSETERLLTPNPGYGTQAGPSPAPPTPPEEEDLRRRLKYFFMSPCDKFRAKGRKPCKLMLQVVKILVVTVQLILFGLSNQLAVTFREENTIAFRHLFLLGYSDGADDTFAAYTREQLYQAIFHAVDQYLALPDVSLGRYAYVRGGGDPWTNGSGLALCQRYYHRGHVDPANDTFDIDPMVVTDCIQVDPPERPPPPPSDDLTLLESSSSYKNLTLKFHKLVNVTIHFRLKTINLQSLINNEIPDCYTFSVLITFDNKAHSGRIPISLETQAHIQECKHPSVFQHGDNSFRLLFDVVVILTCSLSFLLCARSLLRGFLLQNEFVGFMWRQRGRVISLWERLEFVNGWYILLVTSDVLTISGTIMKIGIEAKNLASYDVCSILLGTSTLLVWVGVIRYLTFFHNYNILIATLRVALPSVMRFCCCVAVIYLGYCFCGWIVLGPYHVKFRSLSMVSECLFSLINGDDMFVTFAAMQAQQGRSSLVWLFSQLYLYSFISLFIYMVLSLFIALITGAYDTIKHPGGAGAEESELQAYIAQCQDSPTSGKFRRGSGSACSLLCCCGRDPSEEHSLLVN
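TRPML1-DL cells, Tet-induced overnight (~16 h, 37 °C) at 1,500 cells/well, were loaded with Ca8 no-wash dye plus quencher for 45-90 min at room temperature. Compounds were pinned during FDSS kinetic reading; agonist 54-4 at EC80 (4 uM final) then added.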
D2 ag = agonists of human D2 dopamine receptor (beta-arrestin) | P14416 | DiscoveRx PathHunter D2 beta-arrestin, luminescence, 90 min; 100% = 57 uM dopamine signal | activation, % (test concentration not listed) | 360,000 tested, 0.084% active | AID 624465; in the data active = activation above about 40%; inconclusive = about 15% to 40%; inactive = below about 15%; note: compound concentration not given in the record; the text of the record calls up to 30% inactive
Target sequence (P14416 whole entry, looked up): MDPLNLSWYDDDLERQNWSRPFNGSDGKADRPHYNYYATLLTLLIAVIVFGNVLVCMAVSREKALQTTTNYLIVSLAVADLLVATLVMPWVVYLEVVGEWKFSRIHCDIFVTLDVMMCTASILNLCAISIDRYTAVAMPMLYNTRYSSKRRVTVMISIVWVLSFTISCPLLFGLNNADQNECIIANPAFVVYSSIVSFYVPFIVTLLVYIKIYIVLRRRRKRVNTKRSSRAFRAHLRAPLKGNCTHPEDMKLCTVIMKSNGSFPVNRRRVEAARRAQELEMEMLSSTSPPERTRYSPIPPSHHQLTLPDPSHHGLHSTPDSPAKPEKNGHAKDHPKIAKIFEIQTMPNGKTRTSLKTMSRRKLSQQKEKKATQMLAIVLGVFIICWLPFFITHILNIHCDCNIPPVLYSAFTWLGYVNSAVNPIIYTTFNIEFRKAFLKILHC
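DiscoveRx PathHunter D2 beta-arrestin cells (2,100/well) attached overnight, then compound-stimulated 90 min at 37 C in HBSS/10 mM HEPES/0.1% Tween-20 buffer; beta-galactosidase complementation read by luminescence after 1 h at ambient temperature. Dopamine 57 uM final (EC100) as control.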
PINK1 expr mod = PINK1 expression modulation; PINK1 immunofluorescence, high-content cytometry, 24 h; Potency, µM (highest dose often 76.6 µM), for the others: top-dose activation (PINK1 increase), hits mostly activators; 410,000 tested, 0.2% active; AID 624263; active = well fitted activation curve with a large enough effect; inconclusive = small, poorly fitted or top-dose-only effect; inactive = flat fitted curve, though single readings scatter; cell line not stated here;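 note: potency is the fitted concentration of half-maximal effect; % of control where 0% means no effect; nearly all actives have a fitted effect of over 65% in size; a mitochondrial uncoupler was the plate control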
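Measures PINK1 amount and localization on or inside mitochondria by immunofluorescence. Stable cells get compounds at 5 concentrations for 24 hours before fixation and staining; CCCP controls included.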
TRPML1 agonist = agonists of human TRPML1 channel | Q9GZU1 | TRPML1-expressing cells, Ca2+ dye fluorescence, FDSS; host cell line not named in the record; reference of the full effect not given here | activation, % (concentration not given with the values) | 410,000 tested, 0.12% active | AID 624414; in the data active = activation above about 50%; inconclusive = about 30% to 50%; inactive = below about 30%; note: 0% is about no effect; the text of the record puts the active cut at 80%
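Tet-induced TRPML1-DL cells, 1,500 per well, cultured overnight, were loaded with a no-wash Ca2+ dye for 45–90 min. Calcium fluorescence was recorded on the FDSS for 110 s after compound addition, before the EC80 agonist (4 uM 54-4) was added.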
D2 PAM = human D2 receptor positive allosteric modulation; 360,000 tested, 0.23% active; potentiation, % (no concentration beside the values); P14416; AID 624464; DiscoveRx D2 beta-arrestin cells, luminescence, 90 min; 100% = 57 uM dopamine signal; active = potentiation of 50% or more; inconclusive = 30% to 50%; inactive = 30% or less;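 note: compound concentration not given in the record; tested on top of an EC20 dose of dopamine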
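PathHunter D2 cells, attached overnight at 37 deg C, received compound in DMSO plus dopamine at EC20 (50 nM final) for 90 min at 37 deg C. Beta-arrestin recruitment was read as luminescence after 1 h with detection reagent at ambient temperature.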
Six1-Eya2 inh = Six1/Eya2 interaction inhibition; Q15475+O00167; AlphaScreen GST-Six1/His-Eya2 binding, biochemical; stronger effect = lower value; control for the full effect not named in the record; activity change, % (concentration not given with the values); 360,000 tested, 0.56% active; AID 651725; in the data active = activity change below about -65%; inconclusive = about -30% to -65%; inactive = above about -30%; note: % is set by controls: 0 for no effect and ±100 for the full control effect
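Homogeneous AlphaScreen proximity assay pairing GST-Six1 with His-tagged Eya2 (added as 5X mix: 250 nM and 500 nM) in 50 mM Tris pH 8.0, 300 mM NaCl, 1 mM TCEP. Glutathione donor and nickel acceptor beads; 1 h, 37 °C, dark.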
Active calls of the source: *; ? = inconclusive; / = not tested or not shown; & = joins results of further samples; [ ] = remark or other dose.

SMILES	TRPML1 inh	D2 ag	PINK1 expr mod	TRPML1 agonist	D2 PAM	Six1-Eya2 inh
CC(C)c1ccc(C(CC(=O)O)N2Cc3ccccc3C2=O)cc1 (configuration not stated)	11	?	1.4%	0.7	7	3
CCCN(CC(=O)Nc1ccccc1Br)CC(=O)Nc1ccc(F)c(F)c1F	12	1.8	8.7%	-0.3	-33	-4
CCOC(=O)C1=C(CNCc2ccccc2Cl)NC(=O)NC1c1ccc2c(c1)OCO2 (configuration not stated)	-10	-7.9	-0.2%	2.1	-20	-17
Cc1ccc(N(Cc2cc3ccc(C)cc3[nH]c2=O)C(=O)c2ccco2)cc1	10	-4.7	3.6%	1.7	-11	-3
CC(=O)NCC(=O)N(C)C(C(=O)Nc1ccc(C(C)C)cc1)c1ccccc1 (configuration not stated)	22	-0.8	-1.4%	2.1	-7	0
CCc1cccc2c(C(=O)CCl)c[nH]c12	-2	-3.7	-2.0%	0.9	-5	1
Cc1cc(NC(=O)c2ccc3sc([C@@H]4O[C@H](CO)[C@H](O)[C@H](O)[C@H]4O)nc3c2)no1	/	-6.0	-0.1%	-0.2	-8	6
CCOc1ccc(S(=O)(=O)N2CCOCC2)cc1NC(=O)CCN1C(=O)NC2(CCCC2)C1=O	16	-0.9	-0.8%	0.2	-3	4
COc1ccc(C(=O)N/N=C/c2sc3ccccc3c2O)cc1	8	-4.4	-0.9%	7.3	-9	-74*
CCCNC(=O)COC(=O)c1ccc(N2CCCC2)c([N+](=O)[O-])c1	6	0.3	-2.5%	-0.5	3	0
Cc1ccc(NC(=O)NC(=O)CSc2n[nH]c(N)n2)c(C)c1	0	0.6	1.5%	-0.2	8	18
Cc1cc(C(O)c2ncc(-c3cccc(F)c3)[nH]2)ccc1F (configuration not stated)	/	-3.4	1.1%	-1.0	-9	-7
CC(NC(=O)c1ccc(-c2ccccc2)cc1)C(c1ccccc1)N1CCOCC1 (configuration not stated)	-12	-4.0	0.3%	3.2	-16	-5
O=C(COC(=O)c1ccccn1)NCCCc1ccccc1	-16	-2.2	-0.8%	-0.9	0	0
COc1ccc(CCNC(=O)CCc2nc3ccccc3[nH]2)cc1OC	2	0.5	2.3%	1.2	-6	28
CC(=O)Nc1ccc(NC(=O)c2ccccc2Br)cc1	14	-5.3	3.7%	-0.3	-5	1
Nc1nnc(SCC(=O)Nc2cccc(F)c2)s1	0	/	-0.7%	-0.6	/	/
O=C(c1ccc2ccccc2c1)N1CCN(Cc2ccccc2)CC1	0	2.6	-0.5%	3.2	-13	-2
Cc1cc(C)n(C(=O)COc2ccc([N+](=O)[O-])cc2)n1	-15	-4.3	8.1%	0.7	-5	4
CCSc1nnc(NC(=O)c2csc3c2CCC(C)C3)s1 (configuration not stated)	0	-0.5	12%[38.3 µM]	0.8	1	4
Oc1ccc(/C=N/Nc2nc(N3CCCCCC3)nc(N3CCCCCC3)n2)c(O)c1	-8	-0.3	3.4%	0.7	-6	-11
COc1ccc(C(=O)C2CCCN(C(=O)c3cccc(N4CCCC4=O)c3)C2)cc1OC (configuration not stated)	-20	1.3	0.5%	-1.2	2	-1
Cc1cc(C=O)c(C)n1-c1ccc(Cl)c(C(=O)O)c1	-16	2.5	0.3%	-0.1	9	?
COc1cccc(C(=O)N(C)Cc2c(C)nn(C3CCS(=O)(=O)C3)c2C)c1 (configuration not stated)	-26	-1.1	0.1%	0.0	2	-2
CN(C(=O)c1cccc(NC(=O)Cc2ccc(NC(=O)C3CCCN(C(=O)C4CC4)C3)cc2)c1)C1CCC1 (configuration not stated)	10	1.4	-0.3%	2.0	5	6

The final 4 compounds of the section above lead into the next.
SMILES	TRPML1 inh	D2 ag	PINK1 expr mod	TRPML1 agonist	D2 PAM	Six1-Eya2 inh
COc1ccc(C(=O)C2CCCN(C(=O)c3cccc(N4CCCC4=O)c3)C2)cc1OC (configuration not stated)	-20	1.3	0.5%	-1.2	2	-1
Cc1cc(C=O)c(C)n1-c1ccc(Cl)c(C(=O)O)c1	-16	2.5	0.3%	-0.1	9	?
COc1cccc(C(=O)N(C)Cc2c(C)nn(C3CCS(=O)(=O)C3)c2C)c1 (configuration not stated)	-26	-1.1	0.1%	0.0	2	-2
CN(C(=O)c1cccc(NC(=O)Cc2ccc(NC(=O)C3CCCN(C(=O)C4CC4)C3)cc2)c1)C1CCC1 (configuration not stated)	10	1.4	-0.3%	2.0	5	6
C/C(=N\NC(=O)c1cccc(S(=O)(=O)N2CCOCC2)c1)c1ccc(O)cc1	0	-1.4	0.2%	-0.1	1	-1
Cc1ccc(CN(C)C(=O)c2cc(COc3cccc(C(F)(F)F)c3)on2)o1	29	-3.2	3.9%	1.9	-25	-9
CC(=O)Nc1ccc(S(=O)(=O)NCC(C)NS(=O)(=O)c2ccc(NC(C)=O)cc2)cc1 (configuration not stated)	4	-1.5	2.0%	-0.4	-6	-7
CCc1noc(C)c1C(=O)N(CC)CC(=O)Nc1cc(Cl)ccc1C	-14	1.1	1.9%	2.3	-4	28
COc1ccc(Cl)cc1NS(=O)(=O)c1cc(Cl)ccc1OC	14	1.7	7.6%[38.3 µM]	0.8	6	4
O=C(NCc1ccccc1)c1cc(-n2cnnc2)ccc1Cl	-13	-3.0	-0.2%	0.8	13	7
COc1cc(OC)cc(-c2c(-c3cccs3)c3cc(-c4cnc(N)nc4)ccc3n2C)c1	-6	-4.0	1.0%	-0.2	14	-22
O=C(CN1CCNCC1)Nc1ccccc1Cl	-2	-3.2	-0.5%	-0.1	-7	-3
O=C(NCCc1ccc(Cl)cc1)c1ccc(CSCc2ccc(Cl)cc2)o1	41	/	?	1.8	/	/
Cc1cccc(C)c1N=C1NN=C(c2ccccc2F)CS1	2	-0.7	5.9%	0.6	-7	-15
CN(C)S(=O)(=O)N(CC(=O)N1CCOCC1)c1ccccc1	-14	-2.0	1.6%[38.3 µM]	1.1	-11	-4
O=C(NCCCn1ccnc1)c1cccc(S(=O)(=O)Nc2ccccc2F)c1	25	-2.7	/	0.3	-18	4
Cc1ccc(S(=O)(=O)N2CCCC2C(=O)OCc2ccccc2)cc1 (configuration not stated)	54	1.7	2.6%	1.9	-4	48
CCN(C(=O)COC(=O)COc1ccc2c(C)cc(=O)oc2c1)C1CCS(=O)(=O)C1 (configuration not stated)	-7	-5.4	0.5%	0.2	0	-2
CC(=O)c1c(C)[nH]c(C(=O)Nc2cccc(C)c2C)c1C	37	-3.3	0.6%	0.4	-9	3
CC1CCN(C(=O)c2scc3c2OCCO3)CC1	3	-3.7	-0.1%	-0.3	2	6
Cc1ccc(NNc2c(C)nc3ccccc3nc2=O)cc1	-3	-2.2	?	0.5	-2	0
CCOc1ccc(CC(=O)NNC(=S)NC2CCCCC2)cc1OCC	-5	-3.6	-1.1%	-0.2	-23	3
CCOC(=O)CSC1=C(C#N)C(=O)NC(c2ccc(OC)cc2)S1 (configuration not stated)	10	-0.9	0.2%	-0.1	-2	-3
COc1ccc(CCn2nnc(-c3ccc(NC(C)=O)c(Cl)c3)n2)cc1	14	-1.2	2.7%	0.7	2	1
CCOc1ccccc1CNC(=O)c1cnc2sc(N3CCOCC3)nn2c1=O	-24	/	-0.4%	-0.2	/	/
CCOC(=O)c1c(NC(=O)c2cc(C(C)C)on2)sc(C(C)=O)c1C	3&27	-1.8	1.9%&1.3%	-0.7&0.1	-12	8
CCC(=O)N1CCc2cc(S(=O)(=O)NCCC(=O)NCc3ccc(OC)cc3)ccc21	7	/	1.6%	-0.7	/	/
CN(C)CCCN(C(=O)c1ccc2c(c1)OCCO2)c1nc2ccccc2s1	25	/	0.7%	0.0	/	/
CCc1ccc(NS(=O)(=O)c2c(C(=O)N3CCOCC3)c(C)n(C)c2C)cc1	3	-6.2	0.8%	-0.6	-3	2

New compounds follow
SMILES	TRPML1 inh	D2 ag	PINK1 expr mod	TRPML1 agonist	D2 PAM	Six1-Eya2 inh
O=C(O)c1ccc(/C=C/c2ccc3cccc(O)c3n2)cc1	-6	1.9	-2.8%	-0.5	2	-24
CC(=O)N1c2ccc(S(=O)(=O)Nc3ccc(C)c(Cl)c3)cc2CC1C (configuration not stated)	-17	/	6.3%	0.4	/	/
CCN1CCN(C2=NC(=O)/C(=C/c3ccc(C)o3)S2)CC1	26	-1.9	1.4%[38.3 µM]	0.4	-23	-10
CCOCCCNC(=O)c1cc(Sc2ccc(F)cc2)nc2ccccc12	1	0.9	4.5%	0.3	5	4
COc1ccc(C)cc1Nc1nc(N)c2cc(OC)c(OC)cc2n1	3&-7	0.4	-3.4%&4.2%	-0.7&1.3	-14	-27
CCn1cc(C(=O)NCc2ccccc2)c(=O)c2cc(S(=O)(=O)N3CCOCC3)ccc21	2	/	1.2%	-0.2	/	/
O=C1CN(C(=O)COC(=O)COc2ccc3c(c2)CCC3)c2ccccc2N1	11	-1.3	-1.1%	1.6	-16	-6
CCN1C(=O)c2n[nH]c(C(=O)OC)c2C1=O	-16	-4.5	-1.1%	-0.7	-13	-2
Cc1cc(C)c(C(=O)c2ccc(C(=O)NC(C)(C)C)cc2)c(C)c1	-13	-0.5	-1.6%[38.3 µM]	1.0	-2	2
Cc1c(OCC(=O)OC(C)C)ccc2c3c(c(=O)oc12)CCC3	23	-1.1	-1.4%	3.8	-8	4
Cc1[nH]c2ccccc2c1C1(O)C(=O)N(C(C)C)c2ccccc21 (configuration not stated)	-5	-3.4	/	1.1	-24	-6
CCS(=O)(=O)c1ccc2c(c1)N(S(C)(=O)=O)CC(C(=O)NC1CC1)O2 (configuration not stated)	-5	-0.1	1.8%	0.8	-8	0
CCOC(=O)N1CCc2c(sc3c2c(=O)n(Cc2ccccc2)c(=O)n3Cc2cccc(C)c2)C1	-19&-8	-0.6	-0.2%&1.9%	0.4&-0.7	-3	-7
COc1cc(NC(=O)C2CCCN(S(=O)(=O)c3cnc[nH]3)C2)cc(OC)c1 (configuration not stated)	9	-4.5	0.5%	-0.3	-5	-8
CCC(CC)NC(=O)CSc1nnc(-c2ccc(OC)cc2)n1C(C)C	8	0.0	-0.7%	1.5	-1	2
COc1ccccc1N1CCN(C(=O)C(CCSC)NS(=O)(=O)c2ccc3c(c2)oc(=O)n3C)CC1 (configuration not stated)	6	/	2.3%	-0.3	/	/
N#Cc1ccc(NC(=O)c2nc(-c3ccccc3)n(-c3ccccc3)n2)cc1	-4	-1.6	7.2%	1.0	-8	-1
O=C(Cn1cnc2scc(-c3ccc(Cl)cc3)c2c1=O)N1CCOCC1	3	1.7	-0.5%	0.0	-4	6
CCN(C(=O)COC(=O)c1ccc(OC)c(S(=O)(=O)N2CCCc3ccccc32)c1)C1CCS(=O)(=O)C1 (configuration not stated)	-12	-18	1.3%	1.2	-9	-13
CCN1/C(=C2/SC(=S)N(NC(C)=O)C2=O)Sc2ccc(Cl)cc21	-15	-2.7	0.3%	1.0	-11	-1
O=C(OCc1cn(-c2ccc(Cl)c(Cl)c2)nn1)c1ccccc1Cl	31	0.0	?	4.8	-4	19
NC(=S)Nc1cccc2cc3ccccc3cc12	-6	1.1	1.5%	5.7	?	-30
